# Sa growth 42C – S. aureus growth inhibition; 170,000 compounds, 0.53% hits; AID 720641; relative growth, % (test concentration not listed); S. aureus RN4220 growth, OD600, 20 h, 42 °C; hits give low values;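 active = growth at 42 °C up to 50% and 20 or more points under that at 30 °C, or under 10% at both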;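 note: 300 nL library stock went into each well; scaled to the means of positive and negative controls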
# GIV Gai3 FP – inhibitors of GIV GBA-motif binding to rat Galpha-i3; P08753; AID 1224905; Galpha-i3/FITC-GIV peptide fluorescence polarization, 90 min; hits give low values; scaled: aluminum fluoride 0%, vehicle 100%; percent of control (FP), % (no concentration beside the values); 210,000 compounds, 0.42% hits;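 active = replicate mean at 85% of control or lower, very high polarization wells dropped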;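 note: wells of about 15 µL received 100 nL stock; the first replicate is given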
# Target sequence (P08753 whole entry, looked up): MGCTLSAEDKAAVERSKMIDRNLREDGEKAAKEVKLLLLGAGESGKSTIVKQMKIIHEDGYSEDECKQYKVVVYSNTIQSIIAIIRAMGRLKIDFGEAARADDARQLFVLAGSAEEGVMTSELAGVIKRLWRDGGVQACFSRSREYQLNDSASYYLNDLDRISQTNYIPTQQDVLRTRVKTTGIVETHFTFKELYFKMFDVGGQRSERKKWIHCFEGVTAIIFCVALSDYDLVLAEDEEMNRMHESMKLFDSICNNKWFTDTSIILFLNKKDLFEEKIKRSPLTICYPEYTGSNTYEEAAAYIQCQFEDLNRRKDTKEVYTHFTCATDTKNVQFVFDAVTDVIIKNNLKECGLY
# HCMV UL50-53 inh – cytomegalovirus nuclear egress complex inhibition; HTRF UL50-UL53 interaction, normalized percent inhibition; inhibition, % (test concentration not listed); 190,000 compounds, 0.15% hits; AID 1918969;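 active = both replicates at 50% or more, plus weaker picks with an unusually low signal ratio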;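 note: stock transfer was 100 nL into about 20 µL; 0% = negative control wells and 100% = wells with untagged competitor protein; inactives centre near -12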
# Sa growth 42C second temp – further read-out of Sa growth 42C, marked with its call; relative growth, %; measured here: growth at 30 °C;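 optical density after 20 h as mean of two plates; 100% = untreated growth and lower means inhibition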
# Numbers without * were called inactive; x = not tested or not shown; & = joins results of further samples.
SMILES	Sa growth 42C	Sa growth 42C second temp	GIV Gai3 FP	HCMV UL50-53 inh
Fc1ccc(CNc2nc3c(c(C(F)(F)F)n2)CCCCC3)cc1	76	80	101	-14
Cn1c(SCC(=O)c2ccc(F)cc2)nnc1-c1ccco1	94	76	92	-5
CCCc1ccc(O)c(N)c1	48	41	x	-26
CCc1nn2c(=O)cc(COc3ccccc3C)nc2s1	99	58	113	-10
COC(=O)c1cc(-c2ccccc2)sc1NC(=S)Nc1ccn(C)n1	104	73	99	-8
COc1ccc(C2C(C(=O)Nc3ccccc3OC)c3ccccc3C(=O)N2c2ccc(OC)cc2)cc1 (stereo not given)	x	x	98	-16
COc1ccc(N2CCN(C=C3C(=O)NC(=O)NC3=O)CC2)cc1	73	94	x	-12
Cc1cc(Cc2ccc(S(=O)(=O)NCC3CCCO3)cc2)c(=O)[nH]n1 (stereo not given)	x	x	94	-14
CN(C)/C=N/n1cnc2sc3c(c2c1=O)CCCC3	107	88	102	-37
Cc1ccccc1NC(=O)Nc1csc2c1CCCC2	113	101	97	0
CCOC(=O)Cc1c(C)nc2c(-c3ccccc3)c(C(F)(F)F)nn2c1C	110	83	104	x
CN1CCN(C(=S)C(=O)NCc2ccccc2)CC1	102	100	103	2
CC1(C)Cn2c(nnc2-c2ccccc2)S1	88	93	102	-16
CCN(CC)c1cc2c(cc1F)c(=O)c(S(=O)(=O)c1ccccc1)cn2C	111	88	101&113	-11
COc1cc(NC(=O)Cn2nc(Cc3cccnc3)c3ccccc3c2=O)cc(OC)c1OC	98	83	104	-39
CCCNC(=O)C1CCN(C(=O)c2ccccc2Cl)CC1	99	84	x	-17
Cc1nc(-c2ccc(F)cc2)sc1CCNS(=O)(=O)c1ccc(Cl)cc1	x	x	102	-5
CCSc1nc(C)c(CC)c(C)c1C(N)=O	104	98	102	11
CC1=CC(=C(C#N)C#N)C=C(C)N1c1cccnc1	107	94	x	-16
COC(Cn1c(-c2ccccc2)n[nH]c1=S)OC	97	83	99	-19
O=S(=O)(c1ccccc1)c1nc(N2CCCc3ccccc32)sc1Cl	102	80	105	x
COc1ccc(CN2Cc3ccccc3C2)cc1	94	94	105	-4
Cc1ccc2c(c1)=C(c1sc(=S)n(CC(=O)O)c1O)C(=O)N=2	91	87	104	-29
CC(C)(CC(=O)O)CC(=O)Nn1c(=S)[nH]c2ccccc2c1=O	92	87	103	x
Cc1ccc(N=C(C#N)C2=C(O)c3ccccc3C2=O)c(Cl)c1	83	35	103	-12
CC(C)Nc1ccc(-n2nc3ccccc3[n+]2[O-])cc1	84	77	x	-100
CCCN(C(=O)c1cc2cc3ccc(OC)cc3nc2o1)c1ccc(CC)cc1	120	88	102	x
CCOC(=O)c1cnc2ccc(F)cc2c1NCc1cccnc1	99	84	x	-23
CCOC(=O)c1c(C)oc2c(Br)cc(NS(=O)(=O)c3ccc(CC)cc3)cc12	x	x	110	0
COc1ccc(OC)c(-c2n[nH]c(C(=O)O)c2C)c1	86	82	101	-32
CN(CC(=O)NC1CCCC1)S(=O)(=O)c1cnc[nH]1	100	93	105	5
Cn1nc(-c2ccc(-c3ccn(S(C)(=O)=O)n3)s2)cc1C(F)(F)F	94	80	105	-12
Cc1cccc(C)c1OCC(=O)Nc1ncn[nH]1	96	94	104	14
COC1CC2CCC(C)C(O)(O2)C(=O)C(=O)N2CCCCC2C(=O)OC(C(C)CC2CCC(O)C(OC)C2)CC(=O)C(C)/C=C(\C)C(O)C(OC)C(=O)C(C)CC(C)/C=C/C=C/C=C/1C (stereo not given)	96	75	x	-15
Cc1ccc(NC(=O)CSCc2ccc(C#N)cc2)cc1	91	77	104	-19
CCCC(=O)Nc1cccn(Cc2ccccc2Br)c1=O	90	89	105	9
O=C(Cc1cccs1)Nc1ccc(-c2nnc(-c3ccccc3)o2)cc1	107	89	103	-11
CCc1ccc(-n2c(=O)c3sc4ccccc4c3n(CC(=O)NCc3ccccc3)c2=O)cc1	99	91	98	-30
CC[C@H]1OC(=O)[C@H](C)[C@@H](O[C@H]2C[C@@](C)(OC)[C@@H](O)[C@H](C)O2)[C@H](C)[C@@H](O[C@@H]2O[C@H](C)C[C@H](NC)[C@H]2O)[C@](C)(O)C[C@@H](C)CN(C)[C@H](C)[C@@H](O)[C@]1(C)O	x	x	104	-20
CCC(NS(=O)(=O)c1ccc(OC)cc1)C(=O)NCc1ccccc1OC (stereo not given)	90	85	101	x
Nc1ncnc2c1ncn2CCN1CCCCC1	90	95	102	x
CCc1[nH]c(C(=O)O)c(C)c1C(=O)OC	105	90	x	-15
CC(C)C(=O)Nc1ccc(N2CCn3c(nc4cc(Cl)ccc43)C2)cc1	x	x	109	-7
Nc1nc(SCc2cnc(-c3ccccc3)o2)nc2nc[nH]c12	70	72	102	-2
O=C(/C=C/c1ccco1)N1CCCSC1=Nc1ccccc1	112	93	x	-12
CC(=O)Nc1ccc(S(=O)(=O)N2CCC(NC(=O)Nc3cccc(F)c3)CC2)cc1	101	92	101	5
CCCn1c(COc2cccc(C)c2)nc2ccccc21	89	65	102	-3
O=C(CSc1nc2ccccc2[nH]1)Nc1ccccc1F	99	90	99	-13
CN(C)c1ccc(/C=N/c2nc3ccccc3o2)cc1	112	92	248	-23
CCOc1ccccc1CNC(=O)CCc1c(C)nn(-c2ccc(N3CCCCC3)nn2)c1C	86	91	99	x
Cc1cc(N2CCCCC2)nc2ccc(NC(=O)/C=C/c3ccc(OCCC(C)C)cc3)cc12	94	91	102	-20
CCCN(CCC)C(=O)c1cnn(-c2ccc(C)c(C)c2)c1NC(C)=O	95	98	96	-7
Cc1onc(-c2ccccc2)c1C(=O)n1cccc1	94	103	111	16
O=C(Nc1ccccc1Cl)c1cc2c(s1)CCC2	90	84	x	-24
COc1ccccc1N(Cc1csc(-c2ccccc2)n1)S(=O)(=O)c1cccs1	101	95	x	-7
O=C(c1cc2c(Cl)ccc3c2n1CCO3)N1CCC(N2CCCCC2)CC1	99	88	102	-25
O=C1OC(COc2ccccc2)CN1c1ccccc1 (stereo not given)	119	96	x	5
COc1cccc(OC)c1C(=O)O/N=C(\N)c1cccc(C)c1	100	89	99	-12
COC(=O)c1ccc(C2N=C(c3ccccc3C)NO2)cc1 (stereo not given)	62	55	x	-8
N#Cc1ccc(-n2cnc3ccccc3c2=O)cc1C#N	116	96	104	-14

# Further entries follow:
SMILES	Sa growth 42C	Sa growth 42C second temp	GIV Gai3 FP	HCMV UL50-53 inh
CCN(CC)C(=O)n1c(Cc2ccccc2)nc2ccccc21	105	93	98	-13
Cc1ccsc1/C=C1/N=C(c2ccccc2)OC1=O	92	81	106	-5
O=c1c(Cl)c(N2CCN(c3ccccc3)CC2)cnn1-c1ccccc1	115	97	108	x
CC1CCCN(S(=O)(=O)c2ccc3ccccc3c2)C1 (stereo not given)	103	94	x	-28
CCOCCOC(=O)C1=C(C)NC2=C(C(=O)CC(c3ccc(OC)cc3)C2)C1c1ccc(OC)c(Br)c1 (stereo not given)	x	x	106	-28
Cc1cc(NC(=O)c2cc3ccccc3o2)n(-c2ncnc3c2cnn3-c2ccc(Cl)cc2)n1	x	x	102	12
Cc1cccc(-c2nn3c(=O)cc(N4CCN(S(=O)(=O)c5cc(C)ccc5C)CC4)nc3s2)c1	x	x	106	-16
CCc1c(O)nc2ccccn2c1=O	93	93	95	-61
CCOC(=O)c1cccc2ncccc12	100	56	104	-13
Cc1ccc(-c2c(C(F)(F)F)nn3c(N4CCN(c5nc(C)cc(C)n5)CC4)cc(C)nc23)cc1	x	x	99	-22
NS(=O)(=O)c1ccc(NC(=O)c2ccc3c(Cl)c4c(nc3c2)CCCC4)cc1	109	87	106	-7
O=S(=O)(Nc1nc2n(n1)C(c1ccccc1)C=C(c1ccc(Cl)cc1)N2)c1ccccc1 (stereo not given)	118	82	104&101	-29&-20
c1coc(-c2nc(-c3cccs3)no2)c1	90	91	112	8
CCN(CC)C(=O)NCc1ccc(OC)cc1	75	106	103	-26
Fc1ccccc1N1CCN(c2ncc3c(n2)CCN(Cc2cc(Br)cs2)C3)CC1	87	91	105	x
O=C(c1oc2ccccc2c1-n1cccc1)C1CC1	87	81	109	-22
O=C(O)CN(CC(=O)O)S(=O)(=O)c1ccccc1	94	85	96	-10
O=C(CCCSc1nc2ccccc2[nH]1)N1CCN(CC(=O)N2CCCC2)CC1	106	102	x	0
COc1ccc(C(=O)CC(C#Cc2ccccc2)CC(=O)c2ccc(OC)cc2)cc1	98	90	104	x
O=C1CC(C(=O)N2CCc3ccccc32)CN1c1ccccc1 (stereo not given)	93	74	104	-11
O=C1c2ccccc2NC2(CCCCC2)N1Cc1ccco1	122	82	113	4
O=C(Nc1ccc2c(c1)OCO2)c1nnc(C(=O)N2CCCC(C(=O)N3CCCC3)C2)s1 (stereo not given)	x	x	112	-36
CNC(=O)CNC(=O)Nc1ccc(Cl)c(Cl)c1	111	84	x	44*
COc1ccc(C(=O)OC2CCCCC2CN(C)C)cc1 (stereo not given)	96	101	x	22
Cc1cc(S(=O)(=O)n2ccnc2C(C)C)cc([N+](=O)[O-])c1C	91	89	105	-2
CN(CCC#N)c1ccc(/C=C(\C#N)C(=O)C(C)(C)C)cc1	92	87	x	-70
CSc1ccccc1NC1=NCCC1	97	96	x	3
S=c1nc[nH]c2c1[nH]c1ccccc12	94	99	91	-23
Cc1oc2ccccc2c1C(=O)CSc1nc2nc[nH]c2c(=O)[nH]1	x	x	98	4
COc1ccc(S(=O)(=O)N2CCN(c3cccc4[nH]ccc34)CC2)cc1OC	100	92	102	-17
O=C(CCn1cnc2onc(-c3ccc(F)cc3)c2c1=O)Nc1cccc(C(F)(F)F)c1	110	87	103	x
Cc1nc(N2CCCC(C(=O)NC3CCCC3)C2)c2c(C)c(C)oc2n1 (stereo not given)	x	x	100	-17
c1ccc2oc(CCCc3nc4ccccc4o3)nc2c1	98	90	103	x
O=c1oc2c(F)cc(F)cc2cc1S(=O)(=O)c1ccc(F)cc1	97	99	100	-9
O=c1[nH]c2c(c(=O)n1Cc1ccccc1)CCC2	96	89	110	-9
Cc1onc(-c2ccccc2)c1C(=O)NCC1COc2ccccc2O1 (stereo not given)	108	98	102	26
COc1ccc2c(c1)CCCN2	100	59	102	-29
O=C1Nc2ccccc2N(O)N1c1ccc(S(=O)(=O)Nc2ccccn2)cc1	102	88	94	-12
O=C(Cn1ccc2cc(S(=O)(=O)N3CCCCCC3)ccc21)NCc1cccc(Cl)c1	116	93	103	x
CC(C)(C)C(=O)Cn1nnc(-c2ccncc2)n1	108	99	97	-6
Cc1cccc(NC(=O)c2ccc(=O)n(CCC(=O)N3CCN(c4ccccn4)CC3)n2)c1	x	x	105	-29
O=C(CC1CCCC1)N1CC(OCc2cccc(F)c2)C1	x	x	97	-20
CC1CCCC(NS(=O)(=O)c2ccc3[nH]c4c(c3c2)CCCC4)C1C (stereo not given)	77	55	97	x
O=C(Oc1ccc(Br)cc1)c1ccco1	80	105	x	-7
C1CCC(N2CCC(N3CCOCC3)CC2)CC1	92	88	102	-22
COCCNC(=O)CN1CCC(c2nc3ccccc3s2)CC1	109	96	x	5
CN1c2ccccc2Oc2nnc(N3CCN(Cc4ccccc4)CC3)cc21	76	95	104	-40
CCc1nnc(NC(=O)CCc2nc(-c3ccc(C)n(CC)c3=O)no2)s1	x	x	103	8
NS(=O)(=O)c1ccc(CCNc2ncnc3c2cnn3-c2ccc(F)cc2)cc1	94	48	106	20
CCOc1cccc(CC(=O)Nc2cc(-c3nc4ccccc4o3)ccc2OC)c1OCC	x	x	100	-4
c1ccc(-c2nnc(COc3ccc4ccccc4c3)o2)cc1	103	85	99	x
CCn1c(/C(C#N)=C/c2ccccc2Cl)nc2ccccc21	71	48	101	x
CC1=C(C(=O)OCc2ccc(C)cc2)C(c2cc3c(cc2Br)OCO3)CC(=O)N1 (stereo not given)	94	105	99	x
CN(Cc1ccccc1)C(=O)C1CCCN1S(=O)(=O)c1cccc2nsnc12 (stereo not given)	78	87	102	-74
CN(c1ccc(Br)cc1)c1ncnc2c1nc1n2CCCCC1	103	75	99	-31

# For convenience, part of the list above:
SMILES	Sa growth 42C	Sa growth 42C second temp	GIV Gai3 FP	HCMV UL50-53 inh
O=C(CCn1cnc2onc(-c3ccc(F)cc3)c2c1=O)Nc1cccc(C(F)(F)F)c1	110	87	103	x
Cc1nc(N2CCCC(C(=O)NC3CCCC3)C2)c2c(C)c(C)oc2n1 (stereo not given)	x	x	100	-17
c1ccc2oc(CCCc3nc4ccccc4o3)nc2c1	98	90	103	x
O=c1oc2c(F)cc(F)cc2cc1S(=O)(=O)c1ccc(F)cc1	97	99	100	-9
O=c1[nH]c2c(c(=O)n1Cc1ccccc1)CCC2	96	89	110	-9
Cc1onc(-c2ccccc2)c1C(=O)NCC1COc2ccccc2O1 (stereo not given)	108	98	102	26
